Vaccinia mCherry – inhibitors of vaccinia virus infection (mCherry reporter signal). actives 0.63% (n = 310,000). Potency, µM (top dose mostly 36.5 µM), for the others: top-dose activity change, negative = inhibition, actives largely listed as inhibitors. Vaccinia virus mCherry reporter infection, fluorescence; about a quarter of the inactives have no number; active = well fitted inhibition curve with a large enough effect; inconclusive = small, poorly fitted or top-dose-only effect; inactive = no such curve, though single readings can be large or run the other way; tested in A549 cells; also: nearly all actives have a fitted effect of over 35% in size; inactives centre near -10
VACV Venus inh – inhibitors of vaccinia virus (Venus reporter); Vaccinia virus Venus reporter expression, fluorescence; Potency, µM (top dose mostly 36.5 µM), for the others: at the highest dose activity change, negative = inhibition, most hits filed as inhibitors; actives 0.46% (n = 330,000); AID 720580; active means well fitted inhibition curve with a large enough effect; inconclusive means small, poorly fitted or top-dose-only effect; inactive means no such curve, though single readings can be large or run the other way; tested in A549 cells; also: nearly all actives have a fitted effect of over 30% in size; inactives centre near -10
Active calls of the source: *; i = inactive; ? = inconclusive; · = no result given; [ ] = another dose, or the depositor's remark. % is scaled to controls: 0 for no effect and ±100 for the full control effect; potency is read from the fitted curve at half-maximal effect.

SMILES	Vaccinia mCherry	VACV Venus inh
O=C(COC(=O)CSc1ccc(Br)cc1)NCc1ccco1	i	-10%
CCC(CC)C(=O)N(c1ccc(F)cc1)C1C=CS(=O)(=O)C1 (centres undefined)	-8%	4%
CC1CCCCN1C(=O)c1cc(Cl)ccc1[N+](=O)[O-] (centres undefined)	0%	-2%
Cn1c(NNC(=O)/C=C/c2ccc3c(c2)OCO3)cc(=O)n(C)c1=O	i	0%
Cc1ccc(-c2csc(=Nc3cccnc3)n2CCCN2CCCC2=O)cc1C	?	?
O=C(COc1ccccc1)NCCc1csc(-c2ccc(F)cc2)n1	-8%	8%
C[C@H](CO)N1C[C@H](C)[C@@H](CN(C)C(=O)Nc2ccc3c(c2)OCO3)Oc2ccc(NS(=O)(=O)c3cn(C)cn3)cc2C1=O	i	-7%
CCCc1cnc(N2CCN(C(=S)NC)CC2)nc1	i	-5%
CSc1nc2ccc(S(=O)(=O)N3CCCCC3)cc2s1	-13%	-10%
O=C(O)c1nccnc1C(=O)Nc1ccc(Cl)cn1	-2%	-16%
COc1ccccc1C(=O)NCC(=O)NCC1(N2CCCCC2)CCCCC1	-8%	1%
Cc1ccc(NC(=S)Nc2cc(C)on2)cc1	i	-2%
Cc1ccc(N(C(=O)CNC(=O)c2ccco2)C(C(=O)NC2CCCC2)c2cccnc2)cc1F (centres undefined)	-10%	0%
Cc1nc(Nc2ccc(Cl)cc2)c2oc3ccccc3c2n1	2%	-7%
CC(=O)N1c2ccc(S(=O)(=O)NCC3CCC(C(=O)Nc4cccc(F)c4)CC3)cc2CC1C (centres undefined)	-9%	?
Cc1ccccc1C(=NCCCN(C)C)c1ccccc1C	-22%	-22%
COc1ccc(Cl)cc1S(=O)(=O)n1ccnc1C(C)C	i	-7%
CN1CCN(c2ccc(NC(=O)c3ccc(-c4ccc(Cl)cc4)o3)cc2)CC1	?	11µM*
Fc1ccc(-c2nc3ccc(Br)cn3c2Cc2cccc(F)c2)cc1	7%	5%
Nc1nnc(Cc2cccc(Br)c2)s1	-9%	-4%
COc1cc(C2C(C#N)=C(N)OC3=C2C(=O)CCC3)cc2c1OCO2 (centres undefined)	-2%	-7%
COc1ccc(C(=O)N[C@H](C(=O)Nc2cccc(S(=O)(=O)N3CCOCC3)c2)C(C)C)cc1	i	-10%
CCOC(=O)/C=C/[C@H]1CCc2cccc(C)c2O1	i	-3%
CC1=C(C(=O)N2CCOCC2)CC(CC(=O)NCc2ccco2)C(=O)N1Cc1ccc(F)cc1 (centres undefined)	-15%	-16%
CCc1cccc2c(C#N)cn(CC(=O)NCc3ccco3)c12	-13%	-2%

More compounds.
SMILES	Vaccinia mCherry	VACV Venus inh
COc1ccc2ccccc2c1CNCCCN1CCOCC1	-10%	-3%
Cn1c(=O)c2cc(S(=O)(=O)Nc3ccc4c(c3)OCO4)ccc2n(C)c1=O	?	?
C=CCc1cccc2cc(C(=O)NCCc3c(C)[nH]c4c(C)cccc34)c(=O)oc12	-4%	5%
O=C(O)CCn1ccc2cc(S(=O)(=O)N3CCCCCC3)ccc21	-14%	-7%
CCOC(=O)c1nc(SC)n(C)c1C(=O)OCC	i	-10%
CCn1c(=NC(=O)c2ccc(S(=O)(=O)N3CCCCC3)cc2)sc2cccc(OC)c21	-12%	-11%
Cn1c(=O)nc2n(-c3ccc(Br)cc3)c3cccc(Cl)c3cc-2c1=O	-2%	2%
COc1ccc(C(=O)NCCc2c[nH]c3ccccc23)cc1S(=O)(=O)N1CCCCC1C (centres undefined)	-9%	-19%
O=C(Cc1nnc(NC(=O)c2ccccc2)s1)N/N=C/c1cccc(O)c1	-11%	0%
CC12CCC3c4ccc(O)cc4CCC3C1CC(O)C2O (centres undefined)	i	-14%
CN(C(=O)CC1C(=O)NCCN1Cc1cccc(F)c1F)C1CC(C)(C)NC(C)(C)C1 (centres undefined)	-14%	-6%
COC(=O)c1sccc1-c1ccc(C(=O)Nc2cccc(Cl)c2)o1	-22%	-8%
O=C(NNC(=O)c1ccccc1F)c1ccc(NS(=O)(=O)c2ccc(F)cc2)cc1	-13%	-8%
COc1ccc(CC(=O)n2c(CC#N)nc3ccccc32)cc1OC	-10%[1.46 µM]	-13%
c1ccc(COc2ccc(OCCCN3CCCCC3)cc2)cc1	?	?
NS(=O)(=O)c1ccc(N/N=C/c2ccc3c(c2)OCO3)c([N+](=O)[O-])c1	1%	-4%
Cc1ccc(C(=O)Nc2ccc(CN3CCS(=O)(=O)CC3)cc2)cc1C	i	-19%
CCN(CC(=O)NC(C)C)Cc1nc2sc3c(c2c(=O)[nH]1)CCC3	0%	-9%
CCOC(=O)N1CCN(S(=O)(=O)c2c(C)nn(C)c2C)CC1	·	-9%
CSc1nnc(CNS(=O)(=O)c2ccc(Cl)cc2)n1C	i	-4%
COc1ccc(F)cc1-c1cc(NC(C)=O)c2ncc(-c3cccc(C(F)(F)F)c3)n2c1	-11%	-6%
Cc1nc2ccc(S(=O)(=O)NC(C(=O)Nc3nc4ccc(Cl)cc4s3)C(C)C)cc2s1 (centres undefined)	i	-1%
CCc1cccc(C)c1NC(=O)C1CCN(S(=O)(=O)c2cccc3nonc23)CC1	5%	11%
c1ccc(N2CCN(Cc3nnc(-c4ccc5c(c4)OCO5)o3)CC2)cc1	-13%	-9%
CNC(=O)C[C@H]1CC[C@@H]2NC[C@H](O)COC[C@H]2O1	-8%	-6%

Continued.
SMILES	Vaccinia mCherry	VACV Venus inh
Cc1cc(N2CCN(C3CCCCC3)CC2)nc2cccc(O)c12	-18%	-23%
Fc1ccc(C2CCCCN2Cc2nc(CC3CC3)no2)cc1 (centres undefined)	-2%	-3%
COc1ccc(-c2nn3c(-c4ccc(OC)cc4)nnc3c3ccccc23)cc1	-16%	-7%
COc1cc(-c2nc3ccc(C)cn3c2Nc2ccc3c(c2)OCCO3)ccc1O	-23%	-8%
Cc1ccc(N2CC(NC(=O)C(=O)c3c[nH]c4ccccc34)CC2=O)cc1 (centres undefined)	-9%[7.34 µM]	-3%[7.34 µM]
CCOc1ccccc1C(=O)NCC(=O)NNC(=O)CN(C)S(=O)(=O)c1ccc(Cl)cc1	?	?
Cn1c2nc(=O)n(-c3ccccc3)c(=O)c-2nc2c1CCCC2	i	-1%
Cc1ccc(CNC(=O)c2cc(-c3ccc(C)c(C)c3)nc3ccccc23)cc1	-22%	-17%
O=C(NCCc1cccc(Cl)c1)c1cccc(-n2cnnn2)c1	i	-9%
COc1ccc(S(=O)(=O)N2CCCC(C(=O)NC3CC3)C2)cc1OC (centres undefined)	-11%	0%
O=C(Oc1c(-c2ccccc2)c(=O)n2c3c(cccc13)CC2)c1ccco1	-3%[7.34 µM]	-14%[7.34 µM]
CN(C)c1ccc(-c2nc(N3CCNCC3)c3ccccc3n2)cc1	?	-18%
C=COCCNC(=S)Nc1cccc(Cl)c1	-20%	-5%
Cc1ccc(S(=O)(=O)NCCCN2CCOCC2)c(C)c1	·	-3%
Cc1cc(C(=O)CSc2nnc(N)s2)c(C)n1-c1c(C)n(C)n(-c2ccccc2)c1=O	·	-12%
COc1ccc2ccn(S(=O)(=O)c3ccccc3)c2c1	-4%	-16%
NC(=O)COc1ccc(NS(=O)(=O)Cc2ccccc2)cc1	i	-6%
CCCCn1c(N)c(N(CC(C)C)C(=O)C2CCCN(C(=O)c3ccc(Cl)cc3)C2)c(=O)[nH]c1=O (centres undefined)	-13%	2%
COc1ccc(Cn2ccnc2SCC(=O)Nc2ccccc2OC)cc1	-20%	-14%
COC(=O)CCC(C)C1CCC2C3CC[C@H]4CC(O)CC[C@@]4(C)C3CC(O)[C@]12C (some centres undefined)	?	10µM*
COc1ccccc1Nc1cc(C(=O)NCCCN(C)C2CCCCC2)c2ccccc2n1	?	?
CCC(C(=O)NC1CCCC1)N(C(=O)c1snc(C(N)=O)c1N)c1ccc(OC)cc1 (centres undefined)	-13%	-6%
Cc1ccc(C2=NNC3(CCOC(C)(C)C3)S2)cc1 (centres undefined)	?	-22%
Cc1cc(N2CCCC2)c(F)cc1/C=C\[N+](=O)[O-]	-22%	-15%
O=C(COC(=O)c1cccc(S(=O)(=O)NCc2ccccc2)c1)NC1CC1	-21%	-5%

Among those listed so far, these have two or more sulfur atoms:
SMILES	Vaccinia mCherry	VACV Venus inh
CSc1nc2ccc(S(=O)(=O)N3CCCCC3)cc2s1	-13%	-10%
CCn1c(=NC(=O)c2ccc(S(=O)(=O)N3CCCCC3)cc2)sc2cccc(OC)c21	-12%	-11%
CSc1nnc(CNS(=O)(=O)c2ccc(Cl)cc2)n1C	i	-4%
Cc1nc2ccc(S(=O)(=O)NC(C(=O)Nc3nc4ccc(Cl)cc4s3)C(C)C)cc2s1 (centres undefined)	i	-1%
Cc1cc(C(=O)CSc2nnc(N)s2)c(C)n1-c1c(C)n(C)n(-c2ccccc2)c1=O	·	-12%

Carrying on.
SMILES	Vaccinia mCherry	VACV Venus inh
Cc1ccc(C)c(N(CC(=O)NCc2ccccc2)C(=O)c2csnn2)c1	-26%	-6%
Cc1ccc(-c2ccc(CN3C(C)C(=O)N(Cc4cn(CC5CCCCC5)nn4)CCS3(=O)=O)cc2)cc1 (centres undefined)	?	?
Oc1ccc(C2=NNC(=NCc3ccc4c(c3)OCO4)SC2)c(O)c1	?	-29%
Cc1ccc(C)c(S(=O)(=O)N2CCN(C(=O)CCNS(=O)(=O)c3ccc(C)c(C)c3)CC2)c1	-11%	-29%
COc1cccc(NS(=O)(=O)c2ccc3[nH]cc(C(=O)NCCC(C)C)c(=O)c3c2)c1	·	?
Cn1c(C(=O)Nc2ccc(OC(F)(F)F)cc2)cc2c(=O)n3ccccc3nc21	?	?
CC(=O)[C@H]1CC[C@H]2C3CC=C4C[C@@H](O)CC[C@]4(C)C3CC[C@]12C (some centres undefined)	-21%	-19%
Cc1cccc(N2CCN(C(=S)c3ccccc3)CC2)c1	-16%	2%
O=C(c1cc2ccccc2c(=O)o1)N1CCCCCC1	-10%	8%
O=c1c2cc(NC(=S)NC3CCCCC3)ccc2nc2n1CCCCC2	-12%	-14%
CCOC(=O)CSc1nc(-c2ccc(C)cc2C)cc(-c2ccccc2)c1C#N	-16%	-12%
O=C(NC(=S)Nc1ccc(S(=O)(=O)Nc2ccccc2)cc1)C1CC1	0%	-4%
CC(NC(=O)Cn1ncc(Cl)c(Cl)c1=O)C12CC3CC(CC(C3)C1)C2 (centres undefined)	?	?
CC[n+]1c(S(=O)(=O)[O-])ccc2ccc(C)cc21	i	-5%
Cc1ccccc1OCC(=O)Nc1ccc2oc(=O)ccc2c1	-9%	5%
COCCCNC(=O)c1ccccc1NS(C)(=O)=O	i	-12%
COc1ccccc1C1CN(Cc2c(C)nn(C)c2Cl)Cc2ccccc2O1 (centres undefined)	-9%	2%
CCOC(=O)c1cccc(-[n+]2c(-c3ccccc3)cc(-c3ccccc3)cc2-c2ccccc2)c1	i	-27%
CCOC(=O)c1c(C)[nH]c(C)c1C(=O)CSc1nc2ccccc2n1CCC#N	-9%	-8%
COc1ccc(NC(=O)C2CCN(S(=O)(=O)c3ccc(Br)s3)CC2)cc1OC	-15%	-23%
CC(C)[C@H]1CN=C2N(CCNC(=O)CCC3CCCCC3)[C@H](Cc3ccc(O)cc3)CN21	-14%	-9%
CC1CCN(C(=O)c2ccc(NC3=C(Cl)C(=O)N(Cc4ccccc4)C3=O)cc2)CC1	-12%	-8%
O=C(Nc1cccc(C(F)(F)F)c1)c1ccc(N2CCNCC2)c([N+](=O)[O-])c1	-24%	-24%
Cc1cc(=O)oc2c(CN3CCCCC3)c(O)c(Cl)cc12	·	3%
Cc1cccc(N2CCN(C(=O)c3cc4c(=O)n(C)c5ccccc5c4n3C)CC2)c1C	?	-24%

Additional records.
SMILES	Vaccinia mCherry	VACV Venus inh
c1ccc(Cn2c(NCc3ccccn3)nc3ccccc32)cc1	?	-13%
O=C(NCc1ccc(N2CCCC2=O)cc1)c1cnccn1	-15%	-2%
CSc1nc(Oc2ccc3ccccc3c2)c2sccc2n1	?	-5%
CCOc1ccc(-c2nc(CSCC(=O)N3CCN(c4ccc(F)cc4)CC3)c(C)o2)cc1	?	-28%
CCN(CC)C(=O)c1sc(NC(=O)C2c3ccccc3Oc3ccccc32)c(C(=O)OC(C)C)c1C	-10%	-20%
O=C(NCC(c1ccco1)N1CCCCC1)c1cccs1 (centres undefined)	-10%	-1%
O=c1ccn([C@@H]2O[C@H](COP(=O)(O)OP(=O)(O)OP(=O)(O)O)[C@@H](O)[C@H]2O)c(=O)[nH]1	-2%	-20%
CC(=O)Nc1ccc(NC(=O)CSc2ccc(-c3ccc(-n4ccnc4)cc3)nn2)cc1	?	-1%
O=C(CSc1cccc[n+]1[O-])c1ccccc1Br	-7%	2%
COc1ccc(CNC(=O)C/C(C)=N/NC(=O)c2cnccn2)cc1	-8%	-7%
NNC(=O)c1cc(Cl)ccc1Cl	i	-18%
COc1ccc(-n2nnc(-c3nc(-c4cccs4)no3)c2N)cc1OC	-4%[7.34 µM]	-3%[7.34 µM]
N#CCC(CNc1ncc(C(F)(F)F)cc1Cl)OC(=O)c1ccc(Cl)cc1 (centres undefined)	?	?
Cc1ccc(OCC(O)CN2C(=O)NC(C)(C)C2=O)cc1 (centres undefined)	·	-1%
CNC(=O)C1Cc2c(-c3cccc(F)c3)ccnc2O1 (centres undefined)	i	-17%

Complete entries, quoted from the list.
Listed for `Cc1ccc(OCC(O)CN2C(=O)NC(C)(C)C2=O)cc1` (centres undefined) → Vaccinia mCherry = ·; VACV Venus inh = -1%
Listed for `COc1ccc(CNC(=O)C/C(C)=N/NC(=O)c2cnccn2)cc1` → Vaccinia mCherry = -8%; VACV Venus inh = -7%
Listed for `CSc1nc(Oc2ccc3ccccc3c2)c2sccc2n1` → Vaccinia mCherry = ?; VACV Venus inh = -5%

Screening results from PubChem.
